KCNQ2 block = KCNQ2 potassium channel inhibitors, primary screen, cell-based, CHO-K1, FluxOR thallium flux, B-score (AID 2156). 310,000 tested, 1.1% active. Potassium voltage-gated channel subfamily KQT member 2 (Rattus norvegicus), O88943. 20 min; hits give low values; only compounds with negative scores are shown here; some inactives read as strong as hits. B-score at 10 µM;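 active = fluorescence ratio B-score at most minus 3 library SDs, with starting brightness B-score within 2 library SDs, cut at about -5.5 in these data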
Target sequence (O88943 whole entry, looked up): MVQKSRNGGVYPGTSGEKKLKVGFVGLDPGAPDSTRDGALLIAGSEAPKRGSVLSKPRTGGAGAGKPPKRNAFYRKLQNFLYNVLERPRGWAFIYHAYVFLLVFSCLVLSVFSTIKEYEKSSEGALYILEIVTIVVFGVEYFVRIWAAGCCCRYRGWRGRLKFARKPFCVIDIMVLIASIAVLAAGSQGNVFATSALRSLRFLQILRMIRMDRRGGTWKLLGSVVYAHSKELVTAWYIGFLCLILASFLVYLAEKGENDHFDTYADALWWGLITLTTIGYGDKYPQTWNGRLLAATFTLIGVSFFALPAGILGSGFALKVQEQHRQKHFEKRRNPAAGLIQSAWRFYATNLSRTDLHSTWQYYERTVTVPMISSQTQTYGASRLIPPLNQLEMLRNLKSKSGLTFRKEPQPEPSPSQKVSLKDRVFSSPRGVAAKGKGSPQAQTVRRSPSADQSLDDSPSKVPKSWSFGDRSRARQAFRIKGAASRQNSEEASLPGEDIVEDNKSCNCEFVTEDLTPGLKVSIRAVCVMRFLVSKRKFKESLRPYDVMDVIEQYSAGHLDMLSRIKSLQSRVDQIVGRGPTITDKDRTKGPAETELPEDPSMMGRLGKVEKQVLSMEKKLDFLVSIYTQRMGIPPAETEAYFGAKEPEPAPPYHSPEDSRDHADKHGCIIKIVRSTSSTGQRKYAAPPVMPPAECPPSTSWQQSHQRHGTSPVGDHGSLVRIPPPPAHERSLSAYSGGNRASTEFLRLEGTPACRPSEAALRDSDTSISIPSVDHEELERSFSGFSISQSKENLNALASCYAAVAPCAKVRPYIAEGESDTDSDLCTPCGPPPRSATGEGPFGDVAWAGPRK
KCNQ2 block baseline = also measured in KCNQ2 block; calls as there; B-score; measured here: initial fluorescence intensity artifact check;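 brightness before thallium and not channel activity; 0 = typical well and far values either way flag optical interference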
Active calls of the source: *; i = inactive. This is a subset (hit frequency here may not be typical).

Values run as follows: KCNQ2 block | KCNQ2 block baseline
1	Cc1ccc(C)c(NS(=O)(=O)c2cc(C(=O)NCCSC3CCCCC3)ccc2C)c1
 : i | -0.57
2	CC(OC(=O)C1CCN(c2ccc(C(F)(F)F)cn2)CC1)C(=O)Nc1ccc(S(N)(=O)=O)cc1 (stereo not given)
 : i | -0.26
3	CSc1ccccc1C(=O)NC1CCCN(Cc2ccccc2F)C1 (stereo not given)
 : i | -0.52
4	CN1CCN(CC(=O)Nc2ccc(Cl)cc2Cl)CC1
 : i | 0.02
5	N=C1C(=O)OCC1c1ccccc1NC(=O)c1ccc(F)cc1 (stereo not given)
 : i | -0.55
6	O=C(CSc1cccc[n+]1[O-])c1cc(Cl)ccc1Cl
 : i | 1.8
7	O=[N+]([O-])c1c(C(Cl)Cl)nn(-c2ccc(Cl)cc2)c1N1CCCCC1
 : i | -0.36
8	Cc1ccc2cn[nH]c2c1NC(=S)NC(=O)c1ccccc1
 : i | 2.4
9	COc1cccc(CNC(=O)c2nnn(CC(=O)Nc3c(C)cccc3C)c2N)c1
 : i | -1.6
10	COc1ccccc1N(CC(=O)Nc1ccccc1C(=O)N1CCOCC1)S(C)(=O)=O
 : i | 0.01
11	O=C(O)c1cccc(Nc2ncnc3sccc23)c1
 : i | -1.6
12	COCC(=O)Nc1ccc(N(C)C)cc1
 : i | -0.46
13	Cc1cccc(N(CC(=O)NCCSCc2ccco2)S(=O)(=O)c2ccccc2)c1
 : i | 0.97
14	O=C1N/C(=N/N=C/c2ccccc2O)SC1Cc1ccc(F)cc1 (stereo not given)
 : i | 3
15	CCCCN(C)C(=O)c1cn(C)c2ccc(S(=O)(=O)N3CCC(C)CC3)cc2c1=O
 : i | 0.03
16	CC1(C(=O)N/N=C/c2cc3c(cc2Br)OCO3)CC1(Br)Br (stereo not given)
 : i | 0.78
17	N#CCCn1[nH]c(-c2ccccc2)cc1=O
 : i | 0.15
18	Cc1occc1-c1nnc(SCC(=O)N2c3ccccc3CCc3ccccc32)n1C
 : i | 0.32
19	CC(NS(C)(=O)=O)C(c1cccs1)N1CCN(c2ccc(F)cc2)CC1 (stereo not given)
 : i | -0.85
20	Cn1c(=O)c2c(nc3n2CC(CO)O3)n(C)c1=O (stereo not given)
 : i | 0.39
21	COc1ccc(S(=O)(=O)N2CCOCC2)cc1NC(=O)CN1CCCC1
 : i | -0.42
22	O=C(COC(=O)c1cccc(S(=O)(=O)N2CCN(c3ccccc3)CC2)c1)NCC1CCCO1 (stereo not given)
 : i | 0.92
23	COc1ccc2c(c1)c(=O)c(Br)c(C)n2Cc1ccccc1
 : i | -0.78
24	Oc1c(C(c2cccs2)N2CCN(c3ccccc3)CC2)sc2ncnn12 (stereo not given)
 : i | 1
25	O=S(=O)(c1ccccc1)c1cnn(-c2ccccc2)c1-c1ccc(Cl)cc1
 : i | 0.92
26	O=C(Nc1ccccc1)C(=O)Nc1ccc2c(c1)N(C(=O)C1CC1)CCC2
 : i | -0.89
27	CCCC(=O)Nc1ccc(C(=O)Nc2cc(C(F)(F)F)ccc2Cl)cc1
 : i | 0.92
28	O=C(CSc1nnc(SCc2ccccc2)s1)N/N=C/C=C\c1ccco1
 : i | -0.13
29	COc1ccc(-n2cc(CNCCc3nc(C)cc(C)n3)c(-c3ccccc3Cl)n2)cc1
 : i | -0.88
30	Cc1c(S(=O)(=O)c2ccccn2)c(N)n(Cc2ccccc2Cl)c1C
 : i | 2.2
31	COc1ccccc1/C=C\C=N\n1c(C2CCCCC2)n[nH]c1=S
 : i | 1.7
32	CC(C)(C)c1ccc(OCCN2CCCC2)cc1
 : i | 2
33	CCOC(=O)C1CCN(S(=O)(=O)c2ccc3c(c2)N(C(C)=O)CC(C)S3)CC1 (stereo not given)
 : i | -0.36
34	CCOC(=O)c1c(C)nc2c(c1-c1ccc(OC)cc1)C(=O)CC(C)(C)C2
 : i | 0.36
35	CSc1nc2nc3c(c(=O)n2[nH]1)CCC3
 : i | 0.79
36	COc1ccc([C@H]2[C@H](C(=O)OC(C)(C)C)N3N=Cc4ccccc4C3C23C(=O)c2ccccc2C3=O)c(OC)c1 (stereo not given in full)
 : i | -1
37	CCCS(=O)(=O)N1CCC(C(=O)NCCN(CC)c2ccccc2)CC1
 : i | 0.86
38	Cc1nn(-c2ccccc2)c(N2CCCC2)c1/C=N/NC(=S)Nc1ccccc1F
 : i | -0.71
39	COc1ccc(NC(=O)N[C@@H](CCSC)C(=O)O)cc1OC
 : i | 0.74
40	COc1ccc(/C=N/N=C2/SCC(=O)N2Cc2ccccc2)cc1
 : i | -1.3
41	O=C(c1ccccc1F)c1cc2c(cc1[N+](=O)[O-])OCCO2
 : i | -1.2
42	N#CCNC(=O)c1cccn1-c1ncc(C(F)(F)F)cc1Cl
 : i | -0.53
43	Cc1noc(C)c1CN(C(=S)NC(C)C)c1ccccc1
 : i | 0.87
44	CCCN(CCC)CCCNC(=O)c1cc2cc3ccc(OC)cc3nc2o1
 : i | 0.87
45	FC(F)(F)COc1ccc(-c2nnc(SCc3ccccc3)o2)cn1
 : i | 2
46	O=C(NC1CCCc2ccccc21)c1ccc2c(c1)OCO2 (stereo not given)
 : i | -1.6
47	COC(=O)c1sccc1NC(=O)CC1C(=O)NCCN1C(=O)Nc1ccc(OCc2ccccc2)cc1 (stereo not given)
 : i | 1.3
48	COC(=O)c1c(NC(=O)C(Cl)Cl)sc2c1C(C(=O)OC)CC2 (stereo not given)
 : i | -1.3
49	O=C(CCC1COc2ccccc2O1)Nc1ncccc1O (stereo not given)
 : i | -0.45
50	Cc1ccccc1CN(C)CC(=O)Nc1ccccc1-c1ccccc1
 : i | -2.4
51	Cc1cc(N2CCOCC2)n2nc(-c3cccc(F)c3)cc2n1
 : i | 0.88
52	N#CCSc1nnc(-c2sc3ccccc3c2Cl)o1
 : i | 0.98
53	COc1ccc(CCNCC(=O)Nc2ccc(OC(F)(F)F)cc2)cc1OC
 : i | -0.52
54	CCOc1ccc(C2=NNC(c3cccs3)=Nc3ccc(OC)cc32)cc1OCC
 : i | -0.91
55	Nc1ccc(S(=O)(=O)NC2=NCCCCC2)cc1N
 : i | -0.62
56	C/C(=N\NC(=S)NCc1ccccc1)c1ccc2c(c1)OCCO2
 : i | -1
57	O=C(Cn1nc(Cc2cccnc2)c2ccccc2c1=O)NCc1ccc2c(c1)OCO2
 : i | 2
58	COc1ccc(-c2nnc(SCC(=O)c3cccs3)n2-c2ccc(Cl)cc2)cc1
 : i | -0.02
59	COc1ccc(C2(CNC(C)=O)CCCC2)cc1OC
 : i | 0.4
60	CNc1nc(Cl)nc(Nc2ccccc2)n1
 : i | 0.03

Compound profiles, from the list above. Order of values: KCNQ2 block | KCNQ2 block baseline
COc1ccc(NC(=O)N[C@@H](CCSC)C(=O)O)cc1OC across the screens: i | 0.74
Cc1noc(C)c1CN(C(=S)NC(C)C)c1ccccc1 across the screens: i | 0.87
CCCN(CCC)CCCNC(=O)c1cc2cc3ccc(OC)cc3nc2o1 across the screens: i | 0.87
N#CCSc1nnc(-c2sc3ccccc3c2Cl)o1 across the screens: i | 0.98
CSc1nc2nc3c(c(=O)n2[nH]1)CCC3 across the screens: i | 0.79

Other structures follow.
Values run as follows: KCNQ2 block | KCNQ2 block baseline
61	N/C(Cc1ccc([N+](=O)[O-])cc1)=N\OC(=O)c1cccc(Br)c1
 : i | 0.85
62	CC(=O)N1CCN(C23CC4CC(CC(C4)C2)C3)CC1
 : i | 0.3
63	O=C(c1ccc([N+](=O)[O-])o1)N1CCc2ccccc2C1
 : i | -1.1
64	CC(C)c1nc2sc3c(c2c(=O)o1)CCCC3
 : i | -2.4
65	Cc1c(Cl)cccc1NC(=S)NC1CC1
 : i | -0.01
66	O=C(c1cccc([N+](=O)[O-])c1)c1cc2ccccc2o1
 : i | -2.1
67	N#CCN1C(=O)C(=O)N(Cc2cccc(C(F)(F)F)c2)C1=O
 : i | -0.02
68	CCOc1ccc(N(Cc2cc3cc(C)ccc3[nH]c2=O)S(=O)(=O)c2ccccc2)cc1
 : i | 0.55
69	CCC(C)COC(=O)c1ccc(C(=O)O)cc1 (stereo not given)
 : i | -0.58
70	Cc1cc(=O)[nH]c(N/N=C/c2ccc(OC(=O)c3ccco3)cc2)n1
 : i | -0.11
71	CCCn1c(N)c(NCCN2CCOCC2)c(=O)[nH]c1=O
 : i | -0.74
72	O=C(NCC1(N2CCOCC2)CCCCC1)c1ccc(Cl)c(S(=O)(=O)NCc2ccco2)c1
 : i | -1.7
73	COc1ccccc1C(=O)C1CCCN(C(=O)c2ccco2)C1 (stereo not given)
 : i | 0.29
74	CCOC(=O)C1(Cc2ccc(Cl)cc2)CCN(C2CCC2)CC1
 : i | 1.3
75	CCCCCc1cc(=O)oc2c(C(CCN3CCCC3)c3cc(OC)c(OC)c(OC)c3)c(OC)cc(OC)c12 (stereo not given)
 : i | 0.67
76	O=C(COC(=O)C1CC2C=CC1C2)NCCc1ccccc1 (stereo not given)
 : i | -0.39
77	COc1ccccc1N/N=C(\C#N)C(=N)N1CCOCC1
 : i | -2.3
78	CC(NC(=O)c1ccc2c(c1)OCO2)C(c1cccs1)N1CCN(c2ccccc2)CC1 (stereo not given)
 : i | 0.08
79	COc1cccc(OCCOc2c(OC)cccc2OC)c1
 : i | 0.31
80	COc1ccc(NC(=O)CN2CCN(S(=O)(=O)c3ccc(Br)cc3)CC2)c(OC)c1
 : i | -0.48
81	COCCN1C(=O)N(c2cccc(C)c2)C(=O)C1CC(=O)Nc1ccc(OC)cc1 (stereo not given)
 : i | 0.9
82	O=C(O)CNC(=O)CC1S/C(=N/N=C2/NC(=O)CS2)NC1=O (stereo not given)
 : i | 0.92
83	CCN(CC(=O)Nc1ccc(NC(C)=O)cc1)C(=O)/C=C/c1ccc2c(c1)OCO2
 : i | 0.19
84	COC(=O)/C=C1\N/C(=N\c2nc(C)cc(C)n2)N(c2ccccc2)C1=O
 : i | 1.2
85	Nc1nc(CN2CCN(c3cccc(Cl)c3)CC2)nc(N2CCCc3ccccc32)n1
 : i | 1.1
86	COc1ccc(C)cc1S(=O)(=O)NCC(c1cccnc1)N1CCc2ccccc2C1 (stereo not given)
 : i | 1.6
87	CCn1c(SCC(=O)OC)nnc1C1CCCCC1
 : i | 0.46
88	CCOC(=O)c1cc(-c2ccc(C)cc2)n(CCC(=O)NCCCOC)c1C
 : i | -0.02
89	Cn1cc(SCC(=O)NCCc2ccccc2)c2ccccc21
 : i | 1.5
90	CCOc1ccc(-n2nc3c(Cl)nnc(C)c3c2C)cc1
 : i | -0.01

Entries above that contain bromine:
Values run as follows: KCNQ2 block | KCNQ2 block baseline
16	CC1(C(=O)N/N=C/c2cc3c(cc2Br)OCO3)CC1(Br)Br (stereo not given)
 : i | 0.78
23	COc1ccc2c(c1)c(=O)c(Br)c(C)n2Cc1ccccc1
 : i | -0.78
61	N/C(Cc1ccc([N+](=O)[O-])cc1)=N\OC(=O)c1cccc(Br)c1
 : i | 0.85
80	COc1ccc(NC(=O)CN2CCN(S(=O)(=O)c3ccc(Br)cc3)CC2)c(OC)c1
 : i | -0.48

Additional structures follow:
Values run as follows: KCNQ2 block | KCNQ2 block baseline
91	CCOC(=O)C(C)N1C(=O)S/C(=C/c2ccc3c(c2)n(C)c(=O)n3C)C1=O (stereo not given)
 : i | -1.6
92	CC(C)COC(=O)/C(C#N)=C/c1c[nH]c2ccccc12
 : i | 2.9
93	COc1ccc(CN2CCC(CO)(Cc3ccccc3C(F)(F)F)CC2)c(F)c1
 : i | 1
94	C/C(=N/NC(N)=S)c1ccccc1[N+](=O)[O-]
 : i | -0.9
95	O=c1c2ccccc2c2c(O)nc(-c3ccccc3)n2n1Cc1ccccc1
 : i | 1.4
96	COC(=O)C1=C(C)NC(=O)CC1c1cc2c(cc1Br)OCO2 (stereo not given)
 : i | -1.6
97	C=CCc1ccc(OCCOCCNCCCC)c(OC)c1
 : i | -1.1
98	C=CCN(CC=C)S(=O)(=O)c1ccc(NC(=S)NC(=O)/C=C/c2cccc3ccccc23)cc1
 : i | 0.8
99	CCOc1cccc(CN2CCC(n3nccc3NC(=O)C3CCCC3)CC2)c1
 : i | 1.9
100	O=C1c2oc3ccc(F)cc3c(=O)c2C(c2cccc(O)c2)N1CCCN1CCOCC1 (stereo not given)
 : i | 0.19
101	CCc1ccc(/C=C2/C(=O)N(c3ccccc3)C(=S)N2CC(=O)OC)s1
 : i | 0.47
102	Cc1ccc(N(Cc2ccccc2F)S(C)(=O)=O)cc1C
 : i | 0.72
103	Cc1ccc(CN2CCN(Cc3ccc(-n4cccn4)cc3C)CC2CCO)cc1 (stereo not given)
 : i | -3
104	COc1cc(-c2cc(C(=O)Nc3ccc(S(=O)(=O)Nc4ncccn4)cc3)c3ccccc3n2)cc(OC)c1OC
 : i | -0.7
105	O=[N+]([O-])c1ccc(S(=O)(=O)c2cccc(C(F)(F)F)c2)nc1
 : i | 0.32
106	CC(O)CNc1nc2sc3c(c2c(=O)n1CCc1ccccc1)CCCCC3 (stereo not given)
 : i | 0.14
107	O=C(c1ccc([N+](=O)[O-])cc1)n1nc(-c2ccccc2)nc1NCc1ccccc1
 : i | 0.94
108	COC(=O)Cc1csc(N)n1
 : i | 1.4
109	COc1ccccc1N=Cc1nc(-c2ccccc2)oc1OC(C)=O
 : i | -0.6
110	O=C1C(Nc2ccccc2)=CC(c2ccc(O)cc2)N1c1ccccc1 (stereo not given)
 : i | 1.8
111	CCOC(=O)c1c(-c2cccc([N+](=O)[O-])c2)cn2ccccc12
 : i | -1.3
112	O=C(NCc1ccccc1)c1ccc(NC(=O)c2ccccc2F)cc1
 : i | 0.06
113	Cc1ccc(CN2CCN(Cc3cnn(-c4ccc(F)cc4)c3)CC2CCO)o1 (stereo not given)
 : i | -0.58
114	COC(=O)c1[nH]c2c(c1C)C(=O)CCC2
 : i | 0.68
115	CC(=O)c1c(C)[nH]c(C(=O)COC(=O)CCSc2ccccc2)c1C
 : i | -0.05
116	COc1cccc(CN2CC(C(=O)N3CCCC3)CCC2=O)c1 (stereo not given)
 : i | -0.12
117	CC1(C)CC2CC(C)(CN2C(=O)COC(=O)CNC(=O)c2ccc(Cl)c(Cl)c2)C1 (stereo not given)
 : i | -2.6
118	Cc1cccc(NC(=O)C2CCN(C(=O)c3ccc(Cl)cc3)CC2)n1
 : i | -0.52

Single entries from the entries so far:
Under KCNQ2 block baseline, compound 52 has 0.98
Under KCNQ2 block baseline, compound 15 has 0.03

Compound activity from PubChem BioAssay.
